AF4-AF9 inh: MLL-AF4/AF9 protein interaction inhibition; AlphaScreen, biotin-AF4 peptide binding to FLAG-AF9; inhibition, % at 10 µM; hit rate 0.47% among 350,000; AID 651704;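 active means every replicate reaching a set inhibition limit, whatever the replicate mean, cut at about 25% in these data; inconclusive means mean inhibition reaches that limit but some replicates miss it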;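 further: 0% = plate neutral control median and 100% = total signal loss; the record names both 10 and 1 µM as test concentration; the first replicate is given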
Target sequence (P42568 whole entry, looked up): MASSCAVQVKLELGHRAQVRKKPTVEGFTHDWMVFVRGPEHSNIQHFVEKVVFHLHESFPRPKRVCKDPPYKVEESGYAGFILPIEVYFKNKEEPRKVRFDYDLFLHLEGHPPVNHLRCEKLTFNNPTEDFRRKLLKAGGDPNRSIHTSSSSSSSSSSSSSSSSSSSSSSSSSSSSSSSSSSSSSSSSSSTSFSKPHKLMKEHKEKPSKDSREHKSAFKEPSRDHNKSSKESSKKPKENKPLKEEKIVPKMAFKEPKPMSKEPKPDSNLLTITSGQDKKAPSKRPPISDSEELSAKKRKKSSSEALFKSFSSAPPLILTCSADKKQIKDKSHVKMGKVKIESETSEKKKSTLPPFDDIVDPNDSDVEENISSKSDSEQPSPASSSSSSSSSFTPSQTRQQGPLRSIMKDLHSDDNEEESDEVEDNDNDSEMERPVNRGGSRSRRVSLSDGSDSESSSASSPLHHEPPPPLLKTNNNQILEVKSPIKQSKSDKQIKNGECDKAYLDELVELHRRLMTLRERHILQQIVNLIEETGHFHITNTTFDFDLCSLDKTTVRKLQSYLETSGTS
Ecoli rRNA inh: inhibitors of bacterial rRNA selective over humanized ribosomes. E. coli WT GFP vs humanized-ribosome RFP mutants, fluorescence, 24 h; active compounds read low; DMSO median 0, no signal -100. GFP signal change (wild-type ribosome), % (no concentration beside the values). hit rate 1.6% among 350,000. AID 720706;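 active means significant combined selectivity score with lowered wild-type GFP, culture density cut under 30%, mutant RFP and density less affected; inactive means any of these conditions unmet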; further: one replicate is shown; some compounds called inactive have numbers as strong as hits
T cruzi repl: T. cruzi replication inhibition; hit rate 1.4% among 300,000; inhibition, % (concentration not given with the values); T. cruzi beta-gal in NIH3T3, luminescence, 90 h;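 active means mean inhibition across valid replicates above about 55%, limit read from the data; inconclusive means mean below that limit but half or more replicates reach it; inactive means mean below it, under half of replicates reach it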;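 further: signal also drops with host cell toxicity which is not excluded here; 0% = plate median of DMSO wells and 100% = zero luminescence signal; higher percent means less beta-gal luminescence so fewer parasites; stock transfer was 50 nL into about 50 µL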
E coli growth: inhibitors of Escherichia coli growth; OD600, 23 h; active compounds read low; AID 1053175; OD600 absorbance (no concentration beside the values); hit rate 0.21% among 330,000;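 active means OD600 absorbance below the run mean of sample wells minus 3.6 SD, in any replicate, cut at about 0.56 in these data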;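 further: stock transfer was 300 nL into about 60 µL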
A1 inh: inhibitors of the anti-apoptotic protein A1, read as caspase activation. AID 2462. hit rate 0.066% among 330,000. caspase activation, % (test concentration not listed). MEF A1-2A-BIM cells, Caspase-Glo 3/7 luminescence, 3 h; percent of clofoctol response, vehicle zero;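 active means over half of replicate activation scores above 10%, or exactly half above 10 with the replicate mean above 10; inconclusive means replicate mean below 10 yet half the replicates above 10; inactive means over half of replicates below 10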;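 further: wells of about 30 µL received 50 nL stock; many hits fall short of the cut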
Beta cell apopt: blocks beta cell apoptosis; INS-1E cytokine-induced death, ATP luminescence, 48 h; percent of positive-control rescue, neutral wells zero; protection from apoptosis, % (test concentration not listed); hit rate 0.8% among 300,000;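 active means all replicates at 75% or more, or half of them and the mean; inconclusive means half reach 75% but not the mean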;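 further: 0% = cytokine-treated negative control wells and 100% = positive control rescue; higher means more ATP so stronger rescue from cytokine killing; wells of about 40 µL received 100 nL stock; the first replicate is given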
UCH37 DUB inh: human UCH37 deubiquitinating enzyme inhibition. Q9Y5K5. purified proteasome/UCH37, Ub-AMC cleavage fluorescence. inhibition, % (concentration not given with the values). hit rate 0.33% among 330,000. AID 588478;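 active means mean of two replicates above 20%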;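 further: 0% = compound-free wells with enzyme and 100% = wells lacking proteasome; stock transfer was 100 nL into about 20 µL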
Target sequence (Q9Y5K5 whole entry, looked up): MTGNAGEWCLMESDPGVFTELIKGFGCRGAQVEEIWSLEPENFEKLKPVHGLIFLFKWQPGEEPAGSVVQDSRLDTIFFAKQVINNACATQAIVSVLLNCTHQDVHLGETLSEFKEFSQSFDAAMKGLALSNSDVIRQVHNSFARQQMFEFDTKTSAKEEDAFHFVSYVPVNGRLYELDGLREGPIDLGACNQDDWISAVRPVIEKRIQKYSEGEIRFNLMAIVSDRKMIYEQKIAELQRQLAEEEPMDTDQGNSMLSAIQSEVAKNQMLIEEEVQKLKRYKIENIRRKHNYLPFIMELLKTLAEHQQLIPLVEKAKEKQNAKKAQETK
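Material: human UCH37 enzyme supplied as purified proteasome complex. Measure: % inhibition of Ub-AMC cleavage fluorescence. Medium: pH 7.4 Tris-HCl (50 mM) with ovalbumin, ATP-MgCl2, DTT. Times: 30 min preincubation with enzyme, 25 min cleavage at room temperature. Detection: AMC fluorescence intensity at 355/460 nm.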
FGF22 binding: binders of recombinant human FGF22 by thermal shift. Q9HCT0. SYPRO orange fluorescence; percent of sucrose octasulfate shift, DMSO zero. calls only at 9.99 µM. hit rate 1.5% among 340,000;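 active means melting point raised past a set limit in the mean and every replicate; inconclusive means no clear call; three in four hits are not shown here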
Target sequence (Q9HCT0 whole entry, looked up): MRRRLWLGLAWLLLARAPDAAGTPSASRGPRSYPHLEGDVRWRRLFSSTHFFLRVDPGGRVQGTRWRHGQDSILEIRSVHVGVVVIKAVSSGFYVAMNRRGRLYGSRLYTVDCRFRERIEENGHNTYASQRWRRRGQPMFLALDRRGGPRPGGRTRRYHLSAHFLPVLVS
Ecoli rRNA inh OD600: further read-out of Ecoli rRNA inh, marked with its call; OD600 change, %; measured here: OD600 growth;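 optical density of the mix in the first replicate; 0 = DMSO median and -100 = no signal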
Ecoli rRNA inh RFP: further read-out of Ecoli rRNA inh, marked with its call; RFP signal change, %; measured here: RFP humanized mutant strains;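 first replicate; 0 = DMSO median and -100 = no signal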
The depositor's hits bear a star; i = inactive; ? = inconclusive; / = no result given.

SMILES	AF4-AF9 inh	Ecoli rRNA inh	Ecoli rRNA inh OD600	Ecoli rRNA inh RFP	T cruzi repl	E coli growth	A1 inh	Beta cell apopt	UCH37 DUB inh	FGF22 binding
O=C(NC1(C(F)(F)F)NC(=O)N(CC2CCCCC2)C1=O)c1ccco1 (stereo not given)	/	/	/	/	-10.8	0.752	-0.6	/	2.3	/
COc1ccc(-c2cn(-c3ccccc3)nc2CO)cc1	-4.6	-3.6	-4.7	0.5	-7.9	0.679	1.0	2.7	5.9	i
COc1ccc(/C=C/C(=O)NC(=S)Nc2ccc(S(=O)(=O)Nc3nccnc3OC)cc2)cc1	/	/	/	/	-13.2	0.642	0.6	-7.1	-9.9	/
CC(C)NC(=O)NNC(=O)Cn1nnc(-c2cccc(Cl)c2Cl)n1	-2.7	15.6	16.7	0.8	3.0	0.651	-0.5	-2.5	1.9	i
Cc1cc(NC(=O)Cn2cnc3c(nnn3-c3cccc(F)c3)c2=O)no1	-3.8	-5.0	-2.8	1.1	-6.9	0.704	-0.1	-6.6	-2.0	i
CCOC(=O)c1c(NC(=O)CNC2CCCc3ccccc32)sc(C(N)=O)c1C (stereo not given)	-0.3	10.8	-5.1	0.1	19.5	0.678	-0.8	21.2	3.9	i
O=C(c1cccc(OC2CCN(Cc3ccc(F)cc3Cl)CC2)c1)N1CCCC1	1.4	-2.9	9.4	3.5	8.8	0.68	0.1	-0.8	-0.7	i
Cn1ccnc1SCC(=O)c1ccc(Br)cc1	1.0	1.8	-1.6	3.5	-10.1	0.693	-2.9	-8.6	2.2	i
Fc1ccccc1/C=N/N1CCN(Cc2ccccc2Cl)CC1	11.6	-6.8	0.9	-3.3	13.0	/	0.9	5.4	/	i
O=C(Nc1ccc(Br)cc1)C1C2C=CC3(O2)C1C(=O)N(CCN1CCCCC1)C3C(=O)NC1CCCCC1 (stereo not given)	3.2	-0.4	12.5	0.0	10.3	0.703	-0.5	-5.8	6.0	i
CN1C(=O)CC(N2CCN(c3ccccn3)CC2)C1=O (stereo not given)	/	/	/	/	-6.3	0.714	-0.1	-9.6	3.7	/
COc1ccc(S(=O)(=O)N2CCN(Cc3cccc([N+](=O)[O-])c3)CC2)cc1	4.4	/	/	/	-7.9	0.703	-0.5	-8.3	3.9	i
CCOC(=O)c1c(NC(=O)COC(=O)CNC(=O)c2ccco2)sc(C(C)=O)c1C	-1.8	6.0	-2.7	6.7	0.9	0.657	0.4	-3.1	4.5	i
CC(=O)Nc1cccc(Oc2cnc3ccccc3n2)c1	/	/	/	/	-9.1	0.662	-0.8	-7.8	2.8	/
O=C(COC(=O)CCCN1C(=O)c2ccccc2C1=O)Nc1ncc(Cl)cc1Cl	/	/	/	/	-16.7	0.783	-1.2	1.6	1.0	/
NC(=O)c1cc(N=Nc2c(N)[nH]n(-c3c(Cl)cc(Cl)cc3Cl)c2=O)ccc1Cl	-17.1	5.5	6.7	-3.6	-9.4	0.709	0.3	/	16.2	i
COC(=O)C(NNc1ccccc1C)(NC(=O)c1ccc(F)cc1)C(F)(F)F (stereo not given)	/	/	/	/	-35.2	0.674	-1.4	-8.3	2.7	/
Brc1ccccc1OCCCCCN1CCOCC1	3.1	2.6	8.8	3.2	10.2	0.65	1.5	-0.9	3.5	i
Cc1ccc(-c2nc3ccccc3nc2NN)cc1	1.6	0.7	6.2	0.1	0.2	/	-11.1	-0.6	/	i
C=CCOc1cccc(/C=C\c2nc(O)c([N+](=O)[O-])c(=O)[nH]2)c1	0.8	6.8	13.1	-3.2	-3.3	0.668	0.1	-5.3	13.7	i
Cc1cccc(C(=O)NNC(=O)c2cc3cc4ccccc4nc3s2)c1	/	/	/	/	/	0.759	1.5	6.8	-2.9	/
CCCCNC(=S)NNC(=O)c1csc(C)c1C	/	/	/	/	-2.3	0.703	0.9	-3.3	4.7	/
CCOc1ccccc1N1Cc2cc(C)c(C)cc2C1	?	-1.9	-0.6	-1.6	52.2	0.789	-0.1	0.3	7.6	i
O=C(Nn1cnnc1)c1ccc(Cl)c(Cl)c1	-2.3	5.4	13.4	-2.4	-0.7	0.656	-1.4	/	4.3	i
CCOC(=O)c1c(C)oc2c1c1c(c3ccccc32)OCN(Cc2ccccn2)C1	/	/	/	/	/	0.658	0.8	6.6	2.7	/
CSc1ccc(/C=C(/NC(=O)c2ccco2)C(=O)N2CCCCC2)cc1	-13.1	2.2	-5.7	7.5	-11.4	0.64	1.6	/	7.2	i
CCOC(=O)C1CCN(C(c2cccc(OC)c2)c2sc3nc(C)nn3c2O)CC1 (stereo not given)	-2.8	-0.1	5.2	-2.2	1.1	0.724	0.0	-3.3	6.4	i
Cc1ccc(NC(=O)CN(C)CC(=O)Nc2c(C)cccc2C)c(Br)c1	/	/	/	/	0.2	0.678	-0.2	-9.2	1.6	/
COc1ccccc1-c1nnc(-c2ccc(F)cc2)o1	-2.9	-18.6	-16.9	0.2	6.4	0.717	-3.8	-2.6	1.4	i
CCC(C)N1CC(C(=O)NC2CCCCC2)CC1=O (stereo not given)	/	/	/	/	-16.3	0.725	0.4	-12.9	-3.3	/
CCOC(=O)Cc1cc(=O)n2[nH]c(C(C)(C)C)cc2n1	-0.1	-9.2	0.2	5.8	-5.7	0.669	0.4	-1.6	-2.2	i
COc1cc(OC)cc(C(=O)NCCCNC(=O)c2cccnc2)c1	-5.8	1.4	6.9	-0.5	4.3	0.649	-0.7	16.9	2.6	i
Cc1ccc(CC(=O)Nc2cccc(C)n2)cc1	/	/	/	/	3.0	0.681	-0.3	4.1	0.9	/
O=C(CSc1cc(Cl)ccc1Cl)NCCCn1ccnc1	5.2	-0.4	-2.0	1.9	9.3	0.702	-0.9	5.7	1.3	i
CCC(C)C1Nc2ccc(C(=O)NCCc3ccc(OC)c(OC)c3)cc2NC1=O (stereo not given)	/	/	/	/	3.6	0.684	1.8	1.3	4.7	/
CCN(CC)c1ccc(S(=O)(=O)N2CCOCC2)cc1NC(=O)COC(=O)C1=COCCO1	3.5	0.0	0.4	-0.4	/	0.693	/	/	4.1	i
CCn1c(=O)c(=O)[nH]c2cc(C(=O)NC3CCCC3)ccc21	-3.5	3.7	5.6	3.5	-10.2	0.668	-0.1	-3.1	-9.2	i
O=C(c1ccccc1)C1OC1C(=O)c1ccccc1 (stereo not given)	-0.8	-4.1	11.5	2.5	/	0.726	/	/	5.2	i
CCO[C@H]1OC(C(=O)NCc2nc3ccccc3[nH]2)=C[C@@H](c2ccc3c(c2)OCO3)[C@@H]1CCCO	/	/	/	/	-11.9	0.774	0.5	-10.9	2.2	/
COc1ccccc1C1C2=C(N=c3s/c(=C/c4cccc(OCC(=O)O)c4)c(=O)n31)c1ccccc1CC2 (stereo not given)	10.2	/	/	/	/	/	-0.3	-2.6	/	i
Cc1ccc(C(=O)NCC(=O)N(C)Cc2ccc(Cl)cc2Cl)s1	-0.8	-15.9	-13.3	-2.0	/	0.656	/	/	0.8	i
N#CC(c1ccccc1)C1CCN(Cc2ccccc2)CC1 (stereo not given)	/	/	/	/	9.1	0.683	0.2	0.3	1.3	/
COc1ccc(CCN(C)C(=O)COc2ccc(N(C)S(=O)(=O)c3ccc(C)cc3)cc2)cc1OC	-0.5	-10.9	-19.7	3.6	3.1	0.696	0.3	/	-0.5	i
Cc1ccc(S(=O)(=O)N2Cc3ccccc3CC2C(=O)Nc2cc(C)on2)cc1 (stereo not given)	/	/	/	/	8.0	0.67	0.0	-0.3	2.2	/
COCCNC(=S)N/N=C(\C)c1cccc(C(F)(F)F)c1	4.5	3.3	0.0	-2.6	9.8	/	-0.5	1.1	/	i
Cc1cccc(NC(=S)N(CCc2ccncc2)C(C)C)c1C	-0.2	3.0	3.0	1.0	-13.8	0.658	0.3	-4.5	3.5	i
COc1cc(C2CC(=O)c3cnc(N)nc3C2)cc(OC)c1OC (stereo not given)	/	/	/	/	3.8	0.706	-0.5	2.1	-0.8	/
Cc1c(C)c2ccc(OCC(=O)NC3CCN(Cc4ccccc4)CC3)c(C)c2oc1=O	-0.6	-1.1	1.7	-2.7	23.9	0.67	0.5	1.5	-15.5	i
Brc1ccc2oc(-c3ccn[nH]3)cc2c1	-2.7	-18.7	-32.0	0.4	11.6	0.635	-2.0	3.4	1.7	i
CC(C)(C)C(=O)NC(=S)Nc1ccccc1F	/	/	/	/	8.7	0.734	-1.2	-3.8	4.3	/
Cc1cccc(-n2c(C)cc(/C=N\NC(=O)c3cccs3)c2C)c1	10.8	-3.3	9.8	-2.2	9.6	/	-1.5	1.6	/	i
CC(=O)CSc1nc(-c2ccccc2)c(-c2ccccc2)o1	0.8	-2.8	-5.5	-2.1	21.9	0.697	-1.1	-6.5	-14.9	i
CCOc1ccccc1NC(=O)COC(=O)/C=C/c1ccc(OC)c(OC)c1	0.9	0.1	-8.6	-5.0	19.1	0.695	0.2	0.4	-17.2	i
O=C(CCN1C(=O)C2CCCCC2C1=O)Nc1ccc(OC(F)F)cc1 (stereo not given)	-10.3	4.3	8.8	-1.2	-5.0	0.682	0.4	-1.4	0.8	i
CCCCc1cc(=O)oc2cc(OCC(=O)N3CCC(C(N)=O)CC3)ccc12	-1.6	/	/	/	-9.5	0.705	0.0	-3.2	-27.0	i
COc1ccccc1-n1c(CNC(=O)c2cccc([N+](=O)[O-])c2C)n[nH]c1=S	-5.3	24.6	12.6	1.8	2.7	0.697	0.9	0.1	-0.6	i
Clc1ccc(-c2nc(-c3cnccn3)no2)cc1	1.6	2.3	-20.3	-4.6	2.1	0.658	-6.3	4.3	5.5	i
Cc1ccc(S(=O)(=O)N2CCSC2)cc1C	5.4	6.2	2.3	5.8	1.8	0.686	-0.3	-1.1	2.5	i
O=P(O)(OCc1ccccc1)OCc1ccccc1	/	8.2	8.0	3.6	/	0.668	0.1	-0.5	-3.3	i
CC1CCCN(C(=O)CCc2ccccc2)C1 (stereo not given)	/	/	/	/	-3.5	0.697	1.2	1.2	2.2	/

The list continues:
SMILES	AF4-AF9 inh	Ecoli rRNA inh	Ecoli rRNA inh OD600	Ecoli rRNA inh RFP	T cruzi repl	E coli growth	A1 inh	Beta cell apopt	UCH37 DUB inh	FGF22 binding
Cc1cccc([C@@H]2[C@@H]3C(=O)N(Cc4ccccc4)C(=O)[C@@H]3[C@]3(CC(C)C)C(=O)N(c4cccc(Br)c4)C(=O)N23)c1	/	/	/	/	3.3	/	1.1	9.2	5.3	/
Cc1cc(C)c(NC(=O)CN2C(=O)NC(Cc3ccccc3)C2=O)c(C)c1 (stereo not given)	-1.7	6.2	0.1	-1.6	-3.9	0.691	0.4	-4.6	6.6	i
CCOc1ccc(NC(=O)c2ccc(Br)o2)c([N+](=O)[O-])c1	/	/	/	/	-5.9	0.719	-0.3	6.2	2.3	/
c1ccc2c(c1)OCC(c1nnc3sc(-c4ccc5c(c4)OCO5)nn13)O2 (stereo not given)	/	/	/	/	-0.7	0.675	-0.5	-3.4	-5.8	/
Cc1ncc([N+](=O)[O-])n1CC(=O)N/N=C/c1ccc(F)cc1	-0.9	23.8	17.7	2.3	-17.7	/	-0.2	-3.1	/	i
c1ccc(Nc2nnc(SCc3cccc4ccccc34)s2)cc1	/	/	/	/	21.1	0.772	0.2	-1.1	-0.4	/

Not all compounds are listed; the hit share may differ from the screen's.
